A1 inh: inhibitors of the anti-apoptotic protein A1, read as caspase activation; MEF A1-2A-BIM cells, Caspase-Glo 3/7 luminescence, 3 h; percent of clofoctol response, vehicle zero; caspase activation, % (test concentration not listed); actives 0.066% (n = 330,000); AID 2462;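 active means over half of replicate activation scores above 10%, or exactly half above 10 with the replicate mean above 10; inconclusive means replicate mean below 10 yet half the replicates above 10; inactive means over half of replicates below 10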;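 further: wells of about 30 µL received 50 nL stock; many hits fall short of the cut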
B2AR ag: agonists of human beta-2 adrenergic receptor inducing internalization; P07550; Am2.2-beta2AR cells, FAP receptor internalization, flow cytometry; reference of the scale not given here; response, % (test concentration not listed); actives 0.43% (n = 340,000); AID 504454;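 active means response above a set limit, near 3 SD of response in nonfluorescent compounds, cut at about 42% in these data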;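 further: stock transfer was 100 nL into about 11 µL; a reference agonist was the positive control; negative values mostly stem from fluorescent compounds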
Calb FLC: C. albicans growth modulation with fluconazole | C. albicans CaCi-2 (fluconazole-resistant clinical isolate) + fluconazole, Alamar Blue growth, 48 h | growth inhibition, % (test concentration not listed) | actives 0.57% (n = 300,000);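 active means most replicates above 75%; inconclusive means exactly half above 75%; inactive means most below 75%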;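 further: all wells also contain fluconazole at 8 µg/ml as a sub-toxic cotreatment; 0% = median of DMSO wells and 100% = median of geldanamycin control wells; wells of about 8 µL received 7.5 nL stock; the first replicate is given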
Beta apoptosis: beta cell apoptosis inhibition; protection from apoptosis, % (test concentration not listed); actives 0.8% (n = 300,000); INS-1E cytokine-induced death, ATP luminescence, 48 h; percent of positive-control rescue, neutral wells zero; AID 435005;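 active means all replicates at 75% or more, or half of them and the mean; inconclusive means half reach 75% but not the mean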;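 further: 0% = cytokine-treated negative control wells and 100% = positive control rescue; higher means more ATP so stronger rescue from cytokine killing; wells of about 40 µL received 100 nL stock; the first replicate is given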
T cruzi repl: T. cruzi replication inhibition. inhibition, % (no concentration beside the values). T. cruzi beta-gal in NIH3T3, luminescence, 90 h. AID 1885. actives 1.4% (n = 300,000);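 active means mean inhibition across valid replicates above about 55%, limit read from the data; inconclusive means mean below that limit but half or more replicates reach it; inactive means mean below it, under half of replicates reach it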;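 further: signal also drops with host cell toxicity which is not excluded here; 0% = plate median of DMSO wells and 100% = zero luminescence signal; higher percent means less beta-gal luminescence so fewer parasites; stock transfer was 50 nL into about 50 µL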
RanGTP-Imp inh: disruptors of Ran-importin-beta complex formation – biochemical, FRET, CFP-Ran, YFP-importin-beta, homogeneous, primary screen. actives 1.1% (n = 300,000). inhibition, % (no concentration beside the values). cell-free CFP-Ran/YFP-importin-beta FRET ratio;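 active means most replicates above 15%; inconclusive means exactly half above 15%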;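 further: 0% = DMSO wells and 100% = Ran loaded with GDP instead of GTP; wells of about 40 µL received 100 nL stock; the first replicate is given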
UCH37 inh: human UCH37 deubiquitinating enzyme inhibition; Q9Y5K5; purified proteasome/UCH37, Ub-AMC cleavage fluorescence; inhibition, % (test concentration not listed); actives 0.33% (n = 330,000); AID 588478;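 active means mean of two replicates above 20%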;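 further: 0% = compound-free wells with enzyme and 100% = wells lacking proteasome; stock transfer was 100 nL into about 20 µL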
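Material: Human UCH37 enzyme supplied as purified proteasome complex | Schedule: 30 min compound-proteasome preincubation then 25 min substrate reaction, room temperature | Detection: AMC fluorescence from Ub-AMC cleavage, excitation 355 nm, emission 460 nm | Benchmarks: Wells without proteasome as full block, compound-free enzyme plus substrate as uninhibited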
LANA-H2A inh: blocks KSHV LANA binding to histone H2A/H2B | Q9QR71 | cell-free LANA-H2A/H2B peptide, fluorescence polarization | inhibition, % (concentration not given with the values) | actives 0.6% (n = 320,000) | AID 2629; in the data active means inhibition mostly above about 10%, no sharp cut-off; inactive means mostly below about 6.7%;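 further: stock transfer was 7.5 nL into about 10 µL; 0% = median of vehicle wells and 100% = median of positive control wells; one replicate is shown; the record names a cut of 25% in any replicate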
The depositor's hits bear a star; ? = inconclusive; . = not tested or not shown.

SMILES	A1 inh	B2AR ag	Calb FLC	Beta apoptosis	T cruzi repl	RanGTP-Imp inh	UCH37 inh	LANA-H2A inh
CC(=O)c1c(C)[nH]c(C(=O)Nc2ccc(Cl)c(S(=O)(=O)N(C)C)c2)c1C	0.6	1	-7	-3	25	?	3.5	5.6
Cc1ccc(/C=N/N2CCN(Cc3ccccc3)CC2)cc1	0.3	2	-5	-3	-4	4.0	.	1.6
COc1ccccc1NC(=O)CSc1nccn1Cc1ccccc1	0.7	-3	-4	-2	0	4.2	2.8	0.7
CC(C)(CNC(=O)c1ccc(-c2cccc(C(F)(F)F)c2)o1)N1CCOCC1	-0.4	-1	3	5	7	.	2.8	0.6
O=c1c2c([nH]c3ccccc13)C(=C1CCCC1)CC2	0.7	-7	9	-11	0	4.7	-5.6	3.4
OCCN1CCOCCOc2ccccc2OCCOCC1	0.7	-1	0	.	-14	1.2	-0.4	1.4
CCOc1ccc(C(=O)OCC(=O)N2CCCC2)cc1	0.0	-3	-4	-6	-5	5.7	2.7	0.1
CCOC(=O)[C@@H]1[C@H]2COc3ccccc3[C@@H]2N2C(=O)N(c3cccc(C)c3)C(=O)[C@@]12C	0.6	8	.	-8	.	.	-9.7	2.9
Cc1ccc(C(=O)Nc2cccnc2)cc1Cl	-7.3	-6	-1	-2	-10	-0.3	3.4	13
CCCNC(=O)C1(CC2CC(c3ccccc3)=NO2)CCN(C(=O)Cc2ccc(F)cc2)CC1 (stereo not given)	0.5	-6	1	6	12	2.2	0.2	0.2
O=C(O)c1ccc2c(=O)n3c(nc2c1)/C(=C/c1ccc(Cl)cc1Cl)CC3	0.1	-7	-8	1	9	1.3	-115	0.4
CC(=O)c1ccc(N2CCN(C(=O)c3ccc(Br)cc3)CC2)c(F)c1	-2.7	13	10	-2	4	3.7	-0.3	-5.9
OC(C#CCN1CCCC1)c1ccccc1 (stereo not given)	0.2	-3	5	1	-7	5.3	3.3	-5.4
COC(=O)c1sc2ccccc2c1NC(=O)c1ccc(S(=O)(=O)N2CC(C)CC(C)C2)cc1 (stereo not given)	1.5	11	-1	2	-5	-3.1	-107	2.1
Cn1cc(CN2CCCC(C(=O)Nc3cccc(-c4cc5ccccc5[nH]4)c3)C2)cn1 (stereo not given)	0.0	26	21	.	17	4.0	.	-2.6
CC(OC(=O)C1CC(=O)N(Cc2ccccc2)C1)C(=O)Nc1cccc(C#N)c1 (stereo not given)	-0.6	-2	-4	-2	-10	-1.6	4.7	-3.3
COc1ccc(C/C(N)=N/OC(=O)c2cccc([N+](=O)[O-])c2)cc1	0.3	19	2	0	9	-2.1	1.5	-0.7
Cc1cc(NC(=O)c2c(Br)c(C)nn2C)no1	-0.1	1	-3	.	-5	2.2	0.6	3.4
Cc1ccc(OC(F)F)c(NC(=O)Nc2cccc(C(F)(F)F)c2)c1	0.3	7	-27	66	55*	?	3.5	-2.1
NS(=O)(=O)c1ccc(NC(=O)CSc2n[nH]c(=O)n2Cc2ccccc2)cc1	-0.3	1	8	-5	-15	3.7	1.2	1.5
CCc1ccc(NC(=O)C(=O)NCC(O)c2ccccc2)cc1 (stereo not given)	-0.6	-4	15	-3	3	-1.0	-0.4	0.8
CC(=O)OC(C(=O)NCCN1CCOCC1)c1c(F)cccc1F (stereo not given)	0.3	-2	-12	-3	0	9.0	-0.2	-4.3
O=C(Cc1ncc(C(F)(F)F)cc1Cl)Nc1cccc(Br)c1	0.0	-11	-9	-1	17	1.4	1.3	-3.0
CNc1nc(C)c(C(=O)OCc2ccccc2)s1	-1.2	0	10	-4	-43	3.3	0.9	5.1
O=C(CS(=O)(=O)Cc1ccccc1)N1CCN(c2cccc(C(F)(F)F)c2)CC1	-0.8	7	2	3	13	-2.4	2.3	-1.1
(cont.)
SMILES	A1 inh	B2AR ag	Calb FLC	Beta apoptosis	T cruzi repl	RanGTP-Imp inh	UCH37 inh	LANA-H2A inh
CC(=O)c1ccc(OCc2cc(C(=O)NCC3CCCCO3)no2)cc1 (stereo not given)	-0.2	4	-21	-1	-8	0.2	0.9	12
O=C(O)c1cccc(NC(=O)c2cn(-c3ccccc3)nc2-c2cccc(Br)c2)c1	0.2	-2	-2	-2	-9	-4.4	-2.2	1.7
N/C(Cc1ccccc1)=N\OC(=O)c1cccc2ccccc12	0.3	4	104*	-2	44	-3.1	1.8	-2.4
Cc1cc(Cl)c(S(=O)(=O)N(C)C)cc1OCC(N)=O	1.0	-14	7	-10	-10	-3.1	2.3	-0.7
COc1ccccc1Cn1c(=O)c2ccccc2n2c(Sc3ncnc4sccc34)nnc12	-0.6	-7	-14	-27	19	-1.2	2.2	2.3
O=C(O)CCCCCCCCCCP(=O)(c1ccccc1)c1ccccc1	-0.3	2	4	-3	23	-1.2	3.1	-3.2
Nc1ccccc1S(N)(=O)=O	1.3	7	.	2	.	.	2.4	4.3
COc1cc(CCCN2CCNC[C@@H]2C(C)O)cc(OC)c1OC (stereo not given in full)	-0.9	3	7	-6	-15	?	-3.8	-5.2
CCN(CC)CCNC(=O)c1cc2c(s1)-c1ccccc1SC2	0.4	7	-1	41	55*	-5.0	-272	-0.6
O=c1[nH]c(Cc2ccccc2)nc2c1oc1ccccc12	0.9	-8	33	-1	.	0.1	4.2	8.2*
O=C(O)Cn1c(-c2ccccn2)nc2ccccc21	-0.6	3	2	.	-7	-4.6	-7.0	-1.1
O=C(CC12CC3CC(CC(C3)C1)C2)N1CCCOC1	-1.4	19	-5	.	-4	-2.1	2.9	11
CCOc1ccc(S(=O)(=O)N2CCC(C(=O)NCc3ccccn3)CC2)cc1C	0.2	-10	-1	-4	3	2.0	0.8	1.7
O=C(C[C@H]1C/C=C\C[C@H](NC(=O)OCC2c3ccccc3-c3ccccc32)C(=O)OC[C@@H]2CCCN2C1=O)N[C@H](CO)Cc1ccccc1	-0.1	-7	.	34	.	.	5.3	3.3
COC(=O)NNC(=O)COc1ccccc1C	2.2	-1	-14	-3	-15	5.3	-0.2	-7.5
COc1ccc(C(=O)OCC(=O)NCc2ccc3c(c2)OCO3)cc1S(=O)(=O)N1CCOCC1	1.2	-4	.	-4	.	.	0.2	-1.5
CC(C)(COC(=O)Nc1ccccc1)COC(=O)Nc1ccccc1	-0.6	-7	10	8	-7	1.8	7.2	0.5
Cc1ccc(-c2cc(C(F)F)n3ncc(C(=O)N4CCc5ccccc54)c3n2)cc1	1.4	15	-10	14	1	-2.2	-0.4	1.4
NC(=O)CC(NC(=O)Cc1cccc2ccccc12)c1ccc(NC2CC3CCC2C3)c([N+](=O)[O-])c1 (stereo not given)	0.7	40	-3	-2	-13	0.9	-0.5	2.2
Cc1cc(C(=O)NNC(=O)CCCCC(=O)NNC(=O)c2cc(C)[nH]n2)n[nH]1	0.3	-2	6	1	-10	5.5	4.1	-8.8
O=C(OCC(=O)N1CCCc2ccccc21)c1cccnc1Cl	-0.4	0	-1	-3	-26	0.4	3.4	8.6
COCCCNC(=O)/C=C/c1c(Cl)cccc1Cl	-0.1	3	-2	2	13	0.8	.	-0.2
Cc1nn(-c2ccccc2)c(N)c1-c1ccccc1	-2.6	5	-9	-3	-2	-2.0	5.4	1.1
Cc1c(NC(=O)CN2C(=O)NC(C)(c3ccc4c(c3)OCCO4)C2=O)c(=O)n(-c2ccccc2)n1C (stereo not given)	0.0	2	-4	5	-24	?	1.8	1.3
CC(=O)N1c2c(cc(Br)cc2S(=O)(=O)NCc2ccccc2)CC1C (stereo not given)	-0.2	-1	-25	-2	4	7.5	1.3	-0.9
